Sa growth inh: inhibitors of Staphylococcus aureus growth at 42 °C. S. aureus RN4220 growth, OD600, 20 h; stronger effect = lower value. 170,000 compounds, 0.53% hits. AID 720641. relative growth, % (test concentration not listed);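 active means growth at 42 °C up to 50% and 20 or more points under that at 30 °C, or under 10% at both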;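 further: 300 nL library stock went into each well; scaled to the means of positive and negative controls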
HCMV NEC inh: inhibitors of HCMV UL50-UL53 nuclear egress complex interaction; 190,000 compounds, 0.15% hits; HTRF UL50-UL53 interaction, normalized percent inhibition; inhibition, % (concentration not given with the values); AID 1918969;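 active means both replicates at 50% or more, plus weaker picks with an unusually low signal ratio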;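 further: stock transfer was 100 nL into about 20 µL; 0% = negative control wells and 100% = wells with untagged competitor protein; inactives centre near -12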
GIV Gai3 FP: blocks GIV peptide binding to rat Galpha-i3. P08753. Galpha-i3/FITC-GIV peptide fluorescence polarization, 90 min; stronger effect = lower value; scaled: aluminum fluoride 0%, vehicle 100%. percent of control (FP), % (concentration not given with the values). 210,000 compounds, 0.42% hits. AID 1224905;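 active means replicate mean at 85% of control or lower, very high polarization wells dropped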;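 further: wells of about 15 µL received 100 nL stock; the first replicate is given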
Target sequence (P08753 whole entry, looked up): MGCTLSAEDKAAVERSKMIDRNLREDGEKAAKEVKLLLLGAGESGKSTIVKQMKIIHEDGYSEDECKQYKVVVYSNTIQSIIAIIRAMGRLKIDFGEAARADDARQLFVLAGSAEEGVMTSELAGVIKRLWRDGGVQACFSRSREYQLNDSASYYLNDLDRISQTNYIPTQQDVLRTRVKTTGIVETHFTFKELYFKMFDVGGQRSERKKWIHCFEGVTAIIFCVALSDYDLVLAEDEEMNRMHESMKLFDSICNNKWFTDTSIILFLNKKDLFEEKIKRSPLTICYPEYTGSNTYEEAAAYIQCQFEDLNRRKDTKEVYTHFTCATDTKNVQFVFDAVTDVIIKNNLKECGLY
Sa growth inh second temp: recorded beside Sa growth inh, whose call it bears; relative growth, %; measured here: growth at 30 °C;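 optical density after 20 h as mean of two plates; 100% = untreated growth and lower means inhibition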
* = called active by the depositor; · = not tested or not shown; & = joins results of further samples. Compounds were not picked by outcome (roughly 0.82% active in at least one column).

SMILES | Sa growth inh | Sa growth inh second temp | HCMV NEC inh | GIV Gai3 FP
CCCN(C(=O)COc1cc(=O)n(C)c2ccccc12)c1ccc(C(C)C)cc1 | · | · | -18 | 104
Cc1ccc2[nH]cc(CCN3CC(C(=O)Nc4ccc(F)c(Cl)c4)CC3=O)c2c1 (configuration not stated) | · | · | -16 | 108
CN(C)S(=O)(=O)c1ccc(C(=O)OCc2nc3ccccc3c(=O)[nH]2)cc1 | 72 | 85 | -29 | ·
CCc1ccc(CN2CCN(C(=O)c3ccccc3)CC2)cc1 | 98 | 96 | 1 | ·
CCC(C)NC(=O)c1sc2ncnc(N3CCN(c4ccc(OC)cc4)CC3)c2c1C (configuration not stated) | · | · | -7 | 107
O=C(O)COCC(=O)Nc1cc(C(F)(F)F)ccc1N1CCCC1 | 95 | 88 | -15 | 97
COc1ccc(CNC(=O)C2CCN(c3nnc(C)c4c(C)n(-c5ccc(C)cc5)nc34)CC2)cc1 | 108 | 101 | · | 109
CC(C)N1C/C(=C\c2ccc(N3CCOCC3)cc2)C(=O)/C(=C/c2ccc(N3CCOCC3)cc2)C1 | 86 | 94 | -8 | 160
CC(=O)N1c2ccc(S(=O)(=O)NCC3CCC(C(=O)NCc4ccccn4)CC3)cc2CC1C (configuration not stated) | 102 | 104 | 22 | 101
CSCc1ccc(C(=O)NCc2ccccc2)cc1 | 102 | 89 | -40 | ·
Cc1nc2nc(-c3ccc(C(C)(C)C)cc3)nn2c(C)c1CC(=O)N1CCOCC1 | · | · | -12 | 104
Cc1ccc(C)c(NC(=O)C2CC(O)CN2C(=O)OC(C)(C)C)c1 (configuration not stated) | 97 | 86 | -5 | ·

Three compounds already listed, ordered by the number in GIV Gai3 FP, falling:
Molecule | Sa growth inh | Sa growth inh second temp | GIV Gai3 FP
CC(C)N1C/C(=C\c2ccc(N3CCOCC3)cc2)C(=O)/C(=C/c2ccc(N3CCOCC3)cc2)C1 | 86 | 94 | 160
COc1ccc(CNC(=O)C2CCN(c3nnc(C)c4c(C)n(-c5ccc(C)cc5)nc34)CC2)cc1 | 108 | 101 | 109
CCCN(C(=O)COc1cc(=O)n(C)c2ccccc12)c1ccc(C(C)C)cc1 | · | · | 104

(more compounds)
SMILES | Sa growth inh | Sa growth inh second temp | HCMV NEC inh | GIV Gai3 FP
CCCn1c(SCC2CCCCO2)nc2ccccc21 (configuration not stated) | 116 | 86 | -6 | ·
COc1ccccc1CNC(=O)CNC(=O)Cn1ccc2ccccc2c1=O | 104 | 105 | 16 | 98
Cc1cc2nnc(SCC(=O)Nc3ccc(F)cc3)n2c2ccccc12 | · | · | -25 | 103
Cc1ccc(NC(=S)NN(C)C)cc1 | 102 | 91 | -23 | 106
CCOC(=O)Cn1c(=O)oc2cc(S(=O)(=O)N3c4ccccc4CC3C)ccc21 (configuration not stated) | 85 | 90 | · | 93
Cc1ccc(S(=O)(=O)Nc2cc3c(cc2NCc2ccccc2)n(C)c(=O)n3C)cc1 | 126 | 87 | -11 | 99
Cc1cccc(CNC(=O)c2ccc(NC(=O)N3CC(C)Sc4ccccc43)cc2)c1 (configuration not stated) | 101 | 89 | -28 | 104
O=C1c2ccc3c4c(ccc(c24)C(=O)N1c1nccs1)C(=O)N(c1nccs1)C3=O | 115 | 41 | -44 | 96
OCc1cn(Cn2cc(CO)c(-c3ccccc3)n2)nc1-c1ccccc1 | 103 | 89 | -20 | ·
CC(=O)Nc1ccc(NC(=O)CC(CC(=O)O)c2ccccc2)cc1 (configuration not stated) | 91 | 90 | -4 | 93
Cc1ccc(CN2C(=O)C3CCCCC3C2=O)cc1S(=O)(=O)Nc1ccc(Cl)cc1 (configuration not stated) | · | · | 11 | 101
Nc1ccc(Oc2ccc3nc(-c4ccc(N)cc4)[nH]c3c2)cc1 | 117 | 60 | -11 | 102
CN(C)/C=N/c1nc(-c2ccc3ccccc3c2)cs1 | 58 | 33 | -90 | ·
Cc1ccccc1-c1ccnc2c(-c3ccc(F)cc3)c(C)nn12 | 98 | 106 | -1&6 | 106&102
CCCNC(=O)Cn1nc(C(F)(F)F)c(Br)c1C | 99 | 95 | 2 | 109
COc1cc(C(=O)N2CC(=O)Nc3ccc(C)cc3C2c2ccc(F)cc2)cc(OC)c1OC (configuration not stated) | 90 | 104 | 3 | 107
Cc1cc(C)c2c(n1)SCCN2C(=O)Nc1ccc(C(=O)Nc2ccc(C(C)C)cc2)cc1 | 80 | 94 | · | 103
N#CC(C#N)=CNc1ccc2oc3ncccc3c(=O)c2c1 | 92 | 90 | -45 | 106
COc1ccccc1CNS(=O)(=O)c1cc(Br)cc2c1N(C(C)=O)C(C)C2 (configuration not stated) | 112 | 80 | 2 | 98
CC(C)NC(=O)CC1Oc2ccccc2NC1=O (configuration not stated) | 100 | 87 | 2 | 103
O=C(c1cc(=O)nc2sc(N3CCCC3)nn12)N1CCC(N2CCCCC2)CC1 | · | · | -8 | 103
CCOC(=O)Cn1c(-c2cccs2)cc2ccccc21 | 96 | 82 | · | 101
Cc1cc(N2CCN(Cc3ccccc3)CC2)n2nc(-c3ccccc3)c(C)c2n1 | · | · | -24 | 105
CCOc1ccc(NC(=O)NN2C(C)CCCC2C)cc1 (configuration not stated) | 113 | 100 | · | 101
CCc1ccccc1NC(=S)N1CCC(N(C)C(C)C)CC1 | 90 | 87 | -16 | 101
COc1ccc(C)cc1NC(=O)N1CCN(c2nnc(C)c3c(C)n(-c4ccccc4)nc23)CC1 | 88 | 92 | · | 106
Cc1cccc(N2CCN(C(=O)Cn3nc(C)n4cccc4c3=O)CC2C)c1 (configuration not stated) | 132 | 91 | -7 | 101
CCc1ccc(CNC(=O)Cc2c(C(=O)O)c(C)cn2C)cc1 | 103 | 91 | · | 101
COC(=O)C(C)Sc1ncnc2c1c(-c1ccccc1)cn2-c1ccc(OC)cc1 (configuration not stated) | 86 | 79 | · | 116
Cc1cccc(N2C(=O)C3ON(c4ccccc4)C(c4ccco4)C3C2=O)c1 (configuration not stated) | 113 | 101 | 9 | 100
CCN(CC(=O)NC1CCS(=O)(=O)C1)Cc1nc2sc3c(c2c(=O)[nH]1)CCC3 (configuration not stated) | 98 | 98 | 10 | ·
Cc1cc(-c2ccccc2)nc2oc3c(=O)[nH]cnc3c12 | 112 | 90 | 39 | 104
Cc1c(CC(C)C)nc(C#N)c(N)c1-c1ccccc1 | 97 | 90 | 3 | ·
COc1ccccc1NC(=O)C1=C(C)Nc2c(C(=O)Nc3ccc(F)cc3)cnn2C1c1ccc(Cl)cc1 (configuration not stated) | 115 | 93 | · | 99
COCCOC(=O)c1c(C)oc2c1cc(NS(=O)(=O)c1ccc(Cl)c([N+](=O)[O-])c1)c1ccccc12 | · | · | -21 | 106
CC(C)NC(=O)Cc1c(C(=O)O)[nH]c2ccccc12 | 101 | 87 | -13 | 100
CCOC(=O)CCN(c1ccccc1)S(=O)(=O)c1ccc2[nH]c(=O)ccc2c1 | 87 | 85 | · | 97
Cc1nc(C)n(CC(O)COc2ccc3c4c(c(=O)oc3c2)CCC4)n1 (configuration not stated) | 99 | 78 | -36 | 105
CCS(=O)(=O)c1ncc(Cl)c(C(=O)Nc2ccc(Cl)cc2)n1 | 1.8* | 2.3* | -23 | 105
COc1ccc(Cl)cc1NC(=O)c1cc2nc(-c3ccc(C)cc3)cc(C(F)(F)F)n2n1 | 87 | 87 | -5 | 98
C=CCn1c(NCc2cn(-c3ccccc3)nc2-c2cccs2)nc2ccccc21 | 113 | 92 | -5 | 107
Cc1cccc(C)c1N1C(=O)c2nccnc2C1=O | · | · | -17 | 99
O=C(CN(Cc1ccco1)C(=O)Cc1c(F)cccc1Cl)Nc1ccccc1Br | 109 | 104 | -1 | ·
O=C(O)/C=C/C1=Cc2ccccc2OC1 | 106 | 112 | -31 | ·
CCOC(=O)C1(Nc2nccs2)Sc2ccccc2NC1=O (configuration not stated) | 76 | 88 | -8 | ·
CC1Cc2ccccc2N1C(=O)CO/N=C/c1ccccc1OC(F)F (configuration not stated) | 97 | 97 | -3 | ·
O=c1nc(SCc2ccccc2F)c2c(n1C1CCCCC1)CCC2 | · | · | -20 | 102
CC(C)C12CN(C(=O)c3ccccc3)CC(C(C)C)(CN(C(=O)c3ccccc3)C1)C2=O | 93 | 81 | -9 | 94

Single records, from the list above. Screens in order: Sa growth inh	Sa growth inh second temp	HCMV NEC inh	GIV Gai3 FP
Entry for CCOC(=O)CCN(c1ccccc1)S(=O)(=O)c1ccc2[nH]c(=O)ccc2c1 → 87	85	·	97
Entry for CN(C)/C=N/c1nc(-c2ccc3ccccc3c2)cs1 → 58	33	-90	·
Entry for O=C1c2ccc3c4c(ccc(c24)C(=O)N1c1nccs1)C(=O)N(c1nccs1)C3=O → 115	41	-44	96
Entry for COC(=O)C(C)Sc1ncnc2c1c(-c1ccccc1)cn2-c1ccc(OC)cc1 (configuration not stated) → 86	79	·	116
Entry for COc1ccc(C)cc1NC(=O)N1CCN(c2nnc(C)c3c(C)n(-c4ccccc4)nc23)CC1 → 88	92	·	106

Going on with the list:
SMILES | Sa growth inh | Sa growth inh second temp | HCMV NEC inh | GIV Gai3 FP
C=CCN(CC=C)CC(O)Cn1c(C)c(C)c2ccccc21 (configuration not stated) | 79 | 83 | -1 | 99
c1ccc(-n2c(-c3ccco3)nnc2N2CCOCC2)cc1 | 95 | 92 | -16 | ·
COc1ccc(-c2cc(-c3nnc(CON4C(=O)CCC4=O)o3)c3ccccc3n2)cc1OC | 113 | 94 | -56 | ·
Nc1cc(-c2cccc(Cl)c2)[nH]n1 | · | · | 6 | 106
CCOc1ccc(C(=O)c2cn(Cc3ccc(OC)cc3)c3cc(OC)c(OC)cc3c2=O)cc1 | 102 | 81 | 4 | 107
N#CC(Sc1nc(-c2cccs2)cc(-c2ccccc2)c1C(=O)O)c1ccc(Cl)cc1 (configuration not stated) | 107 | 96 | -12 | ·
CN(Cc1ccccc1)C(=O)CCc1nc(CN2CCN(C(=O)c3ccccc3)CC2)no1 | 107 | 96 | -22 | 97
CCC(=O)N1CCc2cc(S(=O)(=O)NCCC(=O)Nc3ccc(OC(F)(F)F)cc3)ccc21 | 95 | 87 | · | 99
CC(=O)c1cccc(Nc2nc(-c3cccc(C)c3)nc3ccccc23)c1 | 93 | 81 | -1 | 100
Cc1cc(C)nc(N/N=C/C=N/Nc2nc(C)cc(C)n2)n1 | 102 | 99 | -6 | ·
COc1cc(SC)ccc1C(=O)N1CCn2c3c(c4cc(C)ccc42)CCCC31 (configuration not stated) | 93 | 93 | 14 | 102
CCOC(=O)c1n[nH]c2c1CCCC2 | 75 | 81 | · | 103&102
CSC1=C(C#N)C(=C(C#N)C#N)NC(C)=N1 | 98 | 86 | -11 | 108
COc1cc(OC)cc(-c2nc(-c3ccc4c(c3)[nH]c(=O)n4C)no2)c1 | 89 | 86 | · | 102&101
CCOC(=O)CN1CC=CCC1 | 71 | 95 | -158 | 97
O=C(c1ccc(Br)c(S(=O)(=O)N2CCCCC2)c1)N1CCCCC1 | 87 | 107 | 4 | 107
Cc1cccn2cc(-c3cccc(Br)c3)nc12 | 50 | 61 | -18 | ·
COc1ccc(C(=O)CNc2cccc(Cl)c2C)cc1 | 116 | 99 | 6 | ·
CCOc1ccccc1N1CCN(C(=O)c2cc3cc(OC)ccc3[nH]2)CC1 | 86 | 71 | -20 | 103
O=C1N/C(=N/S(=O)(=O)c2ccccc2)S/C1=C\c1ccc2c(c1)OCO2 | · | · | -2 | 103
Cc1nc(C(=O)Nc2cccc(Cl)c2Cl)c(C(F)(F)F)o1 | 108 | 98 | -14 | 103
CCOc1ccc(-c2c(C)nn3c2NCN(Cc2ccc(C)cc2)C3)cc1OCC | 104 | 81 | -56 | 108
Cc1ccc(C)c(OCC(O)CNC2CCC(C)CC2)c1C (configuration not stated) | 94 | 98 | -14 | ·
CCN1Cc2cccc(C(=O)O)c2C1=O | 95 | 96 | · | 98
NC[C@H]1O[C@@H](n2cnc3c(N)ncnc32)[C@H](O)[C@@H]1O | · | · | -4 | 108
CC1CC(C)CN(C(=O)COc2ccc(-c3nnco3)cc2)C1 (configuration not stated) | 90 | 94 | -4 | ·
CNC(=O)N1CCCC(c2cccc(C(=O)N3CCC(C)CC3)c2)C1 (configuration not stated) | · | · | -13 | 103
O=C(CN1CCCC1)Nc1ccccc1C(=O)c1ccccc1 | 102 | 95 | -20 | ·
C=CCn1c(C)nnc1SC(C)C(=O)c1c(C)[nH]c2ccccc12 (configuration not stated) | 89 | 95 | -6 | ·
CCSc1nnc2c(n1)OC(C)(C)Nc1ccccc1-2 | · | · | -52 | 105
COc1cccc(CNC(=O)c2ccc3cnn(Cc4cccc(Cl)c4)c3c2)c1OC | · | · | -22 | 106
CCCC(=O)C1=C(c2ccc(OCC)cc2)N(C(=O)CCC)n2c(CC)nnc2S1 | · | · | -13 | 104

Single values from the list:
`CCSc1nnc2c(n1)OC(C)(C)Nc1ccccc1-2` | HCMV NEC inh: -52
`CNC(=O)N1CCCC(c2cccc(C(=O)N3CCC(C)CC3)c2)C1` (configuration not stated) | HCMV NEC inh: -13
`NC[C@H]1O[C@@H](n2cnc3c(N)ncnc32)[C@H](O)[C@@H]1O` | GIV Gai3 FP: 108
